TRPV1 potentiator: HTS Assay for Compounds that Act as Potentiators of the Vanilloid Receptor 1. TRPV1-expressing cells, Fluo-8 calcium influx, capsaicin EC20 potentiation; host cell line not named in the record; control for the full effect not named in the record. potentiation, % at 8.33 µM. hit rate 0.02% among 320,000; active means potentiation above 80%; inconclusive means 30% to 80%; inactive means below 30%; note: 0% is about no effect
Target sequence (Q8NER1 whole entry, looked up): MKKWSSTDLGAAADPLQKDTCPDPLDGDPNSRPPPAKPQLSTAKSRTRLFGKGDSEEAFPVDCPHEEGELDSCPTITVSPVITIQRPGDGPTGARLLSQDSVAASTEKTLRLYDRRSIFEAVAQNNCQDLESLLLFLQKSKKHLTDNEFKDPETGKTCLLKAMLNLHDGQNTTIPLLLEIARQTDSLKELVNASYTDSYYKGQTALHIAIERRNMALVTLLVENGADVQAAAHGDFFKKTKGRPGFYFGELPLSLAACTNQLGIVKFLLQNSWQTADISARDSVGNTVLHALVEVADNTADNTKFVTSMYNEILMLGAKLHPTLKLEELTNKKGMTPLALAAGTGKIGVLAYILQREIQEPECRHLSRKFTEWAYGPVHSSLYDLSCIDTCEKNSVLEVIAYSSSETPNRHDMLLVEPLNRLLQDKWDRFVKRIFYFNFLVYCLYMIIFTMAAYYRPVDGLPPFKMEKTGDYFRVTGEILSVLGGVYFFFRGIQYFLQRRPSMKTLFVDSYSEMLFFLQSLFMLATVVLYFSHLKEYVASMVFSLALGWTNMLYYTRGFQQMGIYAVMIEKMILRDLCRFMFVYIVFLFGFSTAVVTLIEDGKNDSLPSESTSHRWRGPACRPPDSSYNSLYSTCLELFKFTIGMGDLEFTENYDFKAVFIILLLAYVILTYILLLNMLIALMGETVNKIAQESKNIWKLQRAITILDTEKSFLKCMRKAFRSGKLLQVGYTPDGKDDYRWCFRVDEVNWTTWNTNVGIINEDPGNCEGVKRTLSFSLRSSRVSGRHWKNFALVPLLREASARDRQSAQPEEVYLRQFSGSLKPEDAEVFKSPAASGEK
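Cells expressing TRPV1 were dye-loaded with Fluo-8 and read kinetically: 10 s baseline, 3 min after compound (agonist portion), then 2 min after EC20 capsaicin (allosteric enhancer portion). Calcium-bound dye fluorescence at 480/520 nm.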
CtBP-E1A inh: qHTS Assay for Inhibitors of the CtBP/E1A Interaction | CtBP / adenovirus E1A interaction (AlphaScreen) | AlphaScreen GST-E1A/His-CtBP binding, 1536-well; hits give low values; control for the full effect not named in the record | activity change, % (test concentration not listed) | hit rate 0.49% among 340,000 | AID 651724, 2012; in the data active means activity change below about -65%; inconclusive means about -30% to -65%; inactive means above about -30%; note: % is set by controls: 0 for no effect and ±100 for the full control effect; compound concentration not given in the record
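Homogeneous bead-based format: GST-tagged E1A captured on glutathione donor beads, His-tagged CtBP on nickel acceptor beads; compounds precede bead addition by 2 h at 37 °C.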
D2 ag: Beta-Arrestin HTS for Positive Allosteric Modulators of the Human D2 Dopamine Receptor: Agonists; D(2) dopamine receptor (Homo sapiens), P14416; DiscoveRx PathHunter D2 beta-arrestin, luminescence, 90 min; 100% = 57 uM dopamine signal; activation, % (no concentration beside the values); hit rate 0.084% among 360,000; AID 624465, 2012; in the data active = activation above about 40%; inconclusive = about 15% to 40%; inactive = below about 15%; note: compound concentration not given in the record; the text of the record calls up to 30% inactive
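DiscoveRx PathHunter D2 beta-arrestin cells (2,100/well) attached overnight, then compound-stimulated 90 min at 37 C in HBSS/10 mM HEPES/0.1% Tween-20 buffer; beta-galactosidase complementation read by luminescence after 1 h at ambient temperature. Dopamine 57 uM final (EC100) as control.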
Six1-Eya2 inh: qHTS Assay for Inhibitors of the Six1/Eya2 Interaction | Homeobox protein SIX1 (Homo sapiens) + Protein phosphatase EYA2 (Homo sapiens), … | AlphaScreen GST-Six1/His-Eya2 binding, biochemical; hits give low values; control for the full effect not named in the record | activity change, % (test concentration not listed) | hit rate 0.56% among 360,000 | AID 651725, 2012; in the data active = activity change below about -65%; inconclusive = about -30% to -65%; inactive = above about -30%; note: % is set by controls: 0 for no effect and ±100 for the full control effect; compound concentration not given in the record
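Compounds are tested against tagged Six1 and Eya2 proteins bridged by glutathione donor and nickel acceptor beads; after a one-hour incubation at 37 °C without light, AlphaScreen emission is recorded.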
PINK1 modulator: A Quantitative High throughput Screen to Identify Chemical Modulators of PINK1 Expression; PINK1 immunofluorescence, high-content cytometry, 24 h; Potency, µM (series often up to 76.6 µM), inactives show at the highest dose activation (PINK1 increase), hits mostly activators; hit rate 0.2% among 410,000; active = well fitted activation curve with a large enough effect; inconclusive = small, poorly fitted or top-dose-only effect; inactive = flat fitted curve, though single readings scatter; cell line not stated here;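 note: potency is the fitted concentration of half-maximal effect; % of control where 0% means no effect; nearly all actives have a fitted effect of over 65% in size; a mitochondrial uncoupler was the plate control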
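Cells are seeded, rested 12 hours, then given compound at five concentrations or DMSO for 24 hours. After fixation, blocking and antibody staining, PINK1 amount and mitochondrial localization are scored; CCCP serves as control.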
Sfp inh: qHTS Assay for Inhibitors of Bacillus subtilis Sfp phosphopantetheinyl transferase (PPTase). 4'-phosphopantetheinyl transferase ffp (Bacillus subtilis), Q9F4F7. Biochemical Sfp PPTase activity, qHTS. Potency, µM, for the others: max response, negative = inhibition, usual class: inhibitors. hit rate 3.5% among 310,000; active = well fitted inhibition curve with a large enough effect; inconclusive = small, poorly fitted or top-dose-only effect, or another doubt; inactive = no such curve, though single readings can be large or run the other way;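 note: the enzyme is Sfp with the accession as filed and its product quenches rhodamine fluorescence; potency is the fitted concentration of half-maximal effect; 0% = enzyme reaction without inhibitor and -100% = no enzyme wells; top concentration of the series not given in the record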
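After 15 min at room temperature with compound, 15 nM Sfp received 5 uM rhodamine-CoA plus 12.5 uM BHQ-2-ybbR (50 mM Hepes pH 7.6, 10 mM MgCl2). Rate came from the fluorescence difference over 30 min, ex 525/em 598 nm.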
D2 potentiator: Beta-Arrestin HTS for Positive Allosteric Modulators of the Human D2 Dopamine Receptor: Potentiators; potentiation, % (concentration not given with the values); hit rate 0.23% among 360,000; DiscoveRx D2 beta-arrestin cells, luminescence, 90 min; 100% = 57 uM dopamine signal; active = potentiation of 50% or more; inconclusive = 30% to 50%; inactive = 30% or less;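 note: compound concentration not given in the record; tested on top of an EC20 dose of dopamine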
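PathHunter beta-arrestin assay in DiscoveRx D2 cells. Compounds were added with an EC20 of dopamine (50 nM final) for 90 min at 37 deg C. Luminescence was read 1 h after detection reagent, with 57 uM dopamine as the EC100 control.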
An asterisk follows results filed as active; u = inconclusive; x = no result given; [ ] = remark or other dose.

SMILES	TRPV1 potentiator	CtBP-E1A inh	D2 ag	Six1-Eya2 inh	PINK1 modulator	Sfp inh	D2 potentiator
C/C(CC(=O)Nc1ccc(Br)cc1)=N\NC(=O)Cc1csc(N)n1	3	-1	-0.1	0	0.0%	-25%	-6
Cc1ccc(/C=C/C(=O)N2CCN(c3cccc(C(F)(F)F)c3)CC2)cc1	6	2	0.9	-3	12%	3%	-21
O=[N+]([O-])c1nn(-c2ccc3c(c2)OCCO3)n(O)c1=NCCCO	12	2	u	-2	-0.9%	15%	73*
O=C(O)c1ccc(N2C(=O)/C(=C/c3ccc(-c4ccc([N+](=O)[O-])cc4)o3)C=C2c2ccccc2)cc1	0	-12	9.1	-21	1.5%	50µM*	16
CCN(CC)C(=O)c1ncn2c1c(=O)[nH]c1ccccc12	x	3	-1.9	-3	1.0%	x	x
Cc1cccc(C)c1NC(=O)CSc1nnc(C)n1-c1ccccc1	-5	1	-4.8	0	-1.6%	-4%	-24
CCOC(=O)CC(=O)CSCC(=O)Nc1ccc(C)cc1	3	0	-1.2	4	7.7%[38.3 µM]	9%	-4
Cc1nn(-c2ccccc2)c(C)c1C(=O)OCC(=O)N1CC(=O)Nc2ccccc21	-2	-9	1.3	-12	0.4%	9%	5
CC1C(=O)Nc2ccccc2N1C(=O)c1ccccc1 (centres undefined)	4	-6	-0.9	4	-1.2%	10%	-3
COc1cc(/C=N/NC(=O)c2cccs2)ccc1OCc1ccccc1	18	0	0.2	6	x	2%	-18
Cc1nc(Nc2ccccc2C)c2cnn(C)c2n1	x	-16	-2.1	19	-0.9%	x	7
COc1ccccc1-c1cc(C(=O)NCc2ccccc2)no1	-3	1	1.5	2	-2.8%[38.3 µM]	0%	-20

Copied from the list.
O=[N+]([O-])c1nn(-c2ccc3c(c2)OCCO3)n(O)c1=NCCCO – CtBP-E1A inh = 2
Cc1nc(Nc2ccccc2C)c2cnn(C)c2n1 – D2 potentiator = 7

Returning to the listing with the 2 entries that preceded the break.
SMILES	TRPV1 potentiator	CtBP-E1A inh	D2 ag	Six1-Eya2 inh	PINK1 modulator	Sfp inh	D2 potentiator
Cc1nc(Nc2ccccc2C)c2cnn(C)c2n1	x	-16	-2.1	19	-0.9%	x	7
COc1ccccc1-c1cc(C(=O)NCc2ccccc2)no1	-3	1	1.5	2	-2.8%[38.3 µM]	0%	-20
CCc1noc(C)c1C(=O)Nc1ccc(-c2nnc3n2CCCCC3)cc1	9	-18	-1.2	6	1.4%	x	2
Cc1nnc(-c2ccc(Oc3ccc(C)c(C)c3)c([N+](=O)[O-])c2)o1	-4	-22	5.7	-23	0.8%	-22%	7
C=CCOc1cccc(C2C(C(=O)c3ccco3)=C(O)C(=O)N2Cc2ccncc2)c1 (centres undefined)	-8	0	-1.9	-3	0.7%	-24%	12
Cc1ccc(-n2c(SCC(=O)NCC3CCCO3)nc3c(c2=O)SCC3)cc1 (centres undefined)	8	-1	-2.4	-3	-3.4%	u	-16
CN(Cc1ccccc1)C(=O)CSc1nc2ccccc2[nH]1	11	1	-4.5	11	0.4%	10%	-8
COc1cc(Cl)ccc1OCc1cc(C(=O)N2CCCCCC2)no1	u	7	2.1	2	-0.4%	5%	-2
C/C(CC(=O)Nc1ccc2c(c1)OCO2)=N\NC(=O)C(c1ccccc1)c1ccccc1	-3	12	-3.6	-5	-0.5%	-14%	-9
COc1ccc(-c2cc(C(=O)N3CCN(c4ccccc4O)CC3)c3ccccc3n2)cc1	-1	x	-1.5	-2	3.7%	x	9
Cc1cccc(-c2cc3nc4c(c(N5CCOCC5)n3n2)CCCC4)c1	25	6	0.4	7	u	u	-9
COC(=O)Nc1c(-c2ccccc2)nc2ccc(Cl)cn12	22	30	-5.4	20	0.3%	2%	-19
COc1cccc(N2CCN(S(=O)(=O)c3ccc4c(c3)CC(C)N4C(=O)C3CC3)CC2)c1 (centres undefined)	1	-10	-13	-6	-0.5%	0%	-10
CN(c1ccccc1)c1ccc(/C=C/[N+](=O)[O-])cc1	0	3	-4.9	0	-0.4%	18µM*	-7

Results in Sfp inh and PINK1 modulator (3 entries from above):
structure,Sfp inh,PINK1 modulator
CCOC(=O)CC(=O)CSCC(=O)Nc1ccc(C)cc1,9%,7.7%[38.3 µM]
Cc1nn(-c2ccccc2)c(C)c1C(=O)OCC(=O)N1CC(=O)Nc2ccccc21,9%,0.4%
CC1C(=O)Nc2ccccc2N1C(=O)c1ccccc1 (centres undefined),10%,-1.2%

Other records follow:
SMILES	TRPV1 potentiator	CtBP-E1A inh	D2 ag	Six1-Eya2 inh	PINK1 modulator	Sfp inh	D2 potentiator
CCOC(=O)c1cnc2cc(-c3ccc(Cl)cc3)nn2c1N	14	-1	-2.1	0	x	-3%	-8
C=CCNC(=O)CC(C)C(CCCCC)C(=O)O (centres undefined)	-4	2	0.1	3	1.6%	25%	10
CC(=O)c1ccc(Nc2ncnc3ccc(Br)cc23)cc1	x	1	-0.2	-1	u	x	-7
C[C@]12C(=O)N(c3ccccc3)C(=O)N1[C@H]1c3ccccc3OC[C@@H]1[C@H]2c1ccccc1	x	-5	-2.2	-12	0.7%	x	-1
CN(C)C(=O)COC(=O)c1ccc(S(=O)(=O)NCc2ccco2)cc1	15	-17	3.6	-4	-0.2%	5%	-7
CC(=Nc1ccccc1)C1=C(O)C(Cc2ccc(F)cc2)NC1=O (centres undefined)	x	5	-5.2	9	4.9%	x	-7
CSc1ccccc1NC(=O)NCCCl	4	20	0.2	0	-2.7%	16%	-14
COc1ccc2sc(-c3ccccc3OC)c(-c3ccc(OC)nc3)c2c1	3	-4	-3.4	-4	0.5%	x	-9
CC(=O)c1cc(N2CCOCC2)ccc1[N+](=O)[O-]	-5	2	-3.4	4	-0.2%	11%	-2
Cc1cc(C)nc(SCC(=O)Nc2ccc(S(=O)(=O)N3CCCCC3)cc2)n1	9	-5	2.9	-1	-1.0%	0%	-2
Cc1ccc(C(=O)Nc2ccc(C(=O)N3CCCCC3)cc2)o1	-9	-24	-2.9	-17	-0.2%	7%	-41
COc1ccc(CNC(=S)NNC(=O)c2cc3ccccc3o2)cc1	u	-22	4.6	-4	0.3%	7%	-3

Some of the entries above, reformatted:
Values run as follows: TRPV1 potentiator	CtBP-E1A inh	D2 ag	Six1-Eya2 inh	PINK1 modulator	Sfp inh	D2 potentiator
COc1ccc2sc(-c3ccccc3OC)c(-c3ccc(OC)nc3)c2c1
→ 3	-4	-3.4	-4	0.5%	x	-9
CC(=O)c1cc(N2CCOCC2)ccc1[N+](=O)[O-]
→ -5	2	-3.4	4	-0.2%	11%	-2
Cc1cc(C)nc(SCC(=O)Nc2ccc(S(=O)(=O)N3CCCCC3)cc2)n1
→ 9	-5	2.9	-1	-1.0%	0%	-2
Cc1ccc(C(=O)Nc2ccc(C(=O)N3CCCCC3)cc2)o1
→ -9	-24	-2.9	-17	-0.2%	7%	-41

Next section.
SMILES	TRPV1 potentiator	CtBP-E1A inh	D2 ag	Six1-Eya2 inh	PINK1 modulator	Sfp inh	D2 potentiator
CCN1C(=O)[C@@H]2[C@@H](c3ccc(SC4CCCCC4)cc3)N3CCCC[C@@]3(C(=O)OC)[C@@H]2C1=O	-6	-4	0.5	-6	15%	x	-14
CCOC(=O)C1(Cc2ccccc2C)CCCN(C(=O)COC)C1 (centres undefined)	0	-17	-1.6	2	-0.4%	10%	-4
COc1cccc(CNC(=O)CCC2CCCN(C(=O)C3CCOCC3)C2)c1 (centres undefined)	7	2	-4.4	5	0.3%	21%	7
COc1ccc2[nH]c3c(c2c1)CCNC3c1ccc([N+](=O)[O-])o1 (centres undefined)	-7	x	u	-23	14%	50µM*	-2
COc1ccc(CN(CC2CCC(C(=O)O)CC2)C(=S)Nc2cc(C)ccc2C)cc1 (centres undefined)	1	8	-3.2	3	0.5%	-25%	-4
Cc1cccc(NS(=O)(=O)c2cc([N+](=O)[O-])ccc2C)n1	5	16	-1.7	2	-0.8%	9%	0
O=C(CSc1nc(=O)n2ccccc2n1)NCc1ccccc1	-15	-5	-4.8	9	-0.4%	x	-1
CCOC(=O)C(=O)Nc1ccc(S(=O)(=O)Nc2ncccn2)cc1	2	3	-1.3	6	9.9%[38.3 µM]	19%	-4
O=C(CSc1nnc(-c2ccc(F)cc2)o1)Nc1ccc(S(=O)(=O)N2CCCC2)cc1	-10	0	-0.2	0	u	-9%	-7
Cc1ccc(NCC(=O)N/N=C/c2c[nH]c3ccccc23)cc1	9	-11	-1.3	-9	9.1%	10%	-12
CC(C)N(Cc1cnn(C)c1)C(=O)C1CCC(=O)N(CCc2cccc(F)c2)C1 (centres undefined)	1	0	0.7	10	-1.2%	-2%	-8
CN(C)CCCNc1oc(/C=C/c2cccs2)nc1S(=O)(=O)c1ccccc1	-2	-1	-2.5	-1	-0.2%	-12%	-53
O=C(Nc1ccccc1)C1=C(Nc2ccccc2)CSC1	x	1	-4.3	-4	1.6%	x	-7
Cc1cccc(NC(=O)CCC(=O)N/N=C/c2ccco2)c1	-1	x	-4.7	-1	1.4%	7%	-6
CCCCCCCCCCCCCCCC(=O)NCCc1c[nH]c2ccccc12	u	7	3.3	4	0.7%	8%	-16
COc1ccc(OC)c(C2CC(=O)Nc3n[nH]c(-c4ccccc4)c32)c1 (centres undefined)	7	-6	-2.1	-8	1.1%	-15%	-6
C[C@H]1CN=C(Nc2ccccc2)N1CC1CCC1	23	3	-1.9	7	0.0%	12%	-9
C=CCNC(=O)N1CCCC(N2CCN(c3ccccc3OC)CC2)C1 (centres undefined)	-4	1	-0.2	-8	-1.0%	23%	-30
CCOC(=O)c1c(/N=C/N(C)C)sc(/C=N/Nc2ccccc2)c1-c1ccccc1Cl	6	0	6.1	-8	0.6%	20%	0
CCSc1nnc(NC(=O)Cc2ccc(OC)c(OC)c2)s1	1	-3	-2.4	-1	-2.1%	6%	-7

Compound activity as filed in PubChem.

Hits appear at their usual frequency; about 3.7% have a hit in one of these screens.
